Bioassay records: PubChem BioAssay, Broad Institute
FGF22 binding: binders of human FGF22 protein, primary screen, FGF22 synaptogenesis inhibitor project, biophysical, thermal shift, single point. Fibroblast growth factor 22 (Homo sapiens), Q9HCT0. calls only at 9.99 µM. actives 1.5% (n = 340,000). recombinant FGF22 thermal shift, SYPRO orange fluorescence; percent of sucrose octasulfate shift, DMSO zero;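 active means melting point raised past a set limit in the mean and every replicate; three in four hits are not shown here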
Target sequence (Q9HCT0 whole entry, looked up): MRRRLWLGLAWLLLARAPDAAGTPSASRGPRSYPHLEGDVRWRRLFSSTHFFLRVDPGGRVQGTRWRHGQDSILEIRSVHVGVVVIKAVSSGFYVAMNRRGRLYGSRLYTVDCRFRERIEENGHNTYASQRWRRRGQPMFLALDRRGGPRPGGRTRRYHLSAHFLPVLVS
Calls only; i = inactive.

SMILES	FGF22 binding
O=C(C1CCCCC1)N1CC2(C1)[C@@H](c1ccccc1)[C@@H](CO)N2Cc1cncnc1	i
CN(C)CC(=O)N1[C@@H]2Cn3c(ccc(-c4ccncc4)c3=O)[C@H]1[C@@H](C(=O)NC1CCC1)[C@@H]2CO	i
CN(C)C(=O)C[C@@H]1C[C@@H]2c3cc(NS(=O)(=O)c4ccccc4)ccc3O[C@@H]2[C@@H](CO)O1	i
O=C(c1ccccc1)N1CC2(C1)[C@@H](c1ccccc1)[C@@H](CO)N2Cc1ccccn1	i
O=C(C[C@@H]1CC[C@H](NS(=O)(=O)c2ccc(F)cc2)[C@@H](CO)O1)NCc1ccncn1	i
CO[C@@H]1CN(C)C(=O)c2ccc(NC(=O)C3CCC3)cc2OC[C@H](C)NC[C@H]1C	i
C[C@@H](NC(=O)C[C@@H]1C[C@H]2c3cc(NC(=O)NC4CCCC4)ccc3O[C@H]2[C@@H](CO)O1)c1ccccc1	i
CCC(=O)N(C)C[C@@H]1Oc2cc(-c3ccc(OC)cc3)ccc2S(=O)(=O)N([C@H](C)CO)C[C@@H]1C	i
CN1C(=O)c2cc(NC(=O)Cc3cccs3)ccc2OC[C@@H]2O[C@H](CC(=O)NCC3CCCCC3)CC[C@H]21	i
CO[C@@H]1CN(C)C(=O)c2ccc(NC(=O)NC(C)C)cc2OC[C@@H](C)N(CCC(F)(F)F)C[C@H]1C	i
COc1ccc(NC(=O)Nc2ccc3c(c2)[C@H]2C[C@@H](CC(=O)NCc4ccc5c(c4)OCO5)O[C@@H](CO)[C@H]2O3)cc1	i
C[C@@H]1CN([C@H](C)CO)C(=O)c2cccc(NC(=O)c3ccncc3)c2O[C@@H]1CN(C)S(C)(=O)=O	i
C[C@@H]1CN([C@H](C)CO)C(=O)c2cccc(NS(=O)(=O)c3ccc(F)cc3)c2O[C@H]1CN(C)C	i
CCNC(=O)[C@H]1N[C@H]2c3ccc(-c4cccc(C(=O)N(C)C)c4)c(=O)n3C[C@H]2[C@@H]1CO	i
C[C@H](CO)N1C[C@H](C)[C@H](CN(C)CC2CCOCC2)Oc2cc(-c3cccnc3)ccc2S1(=O)=O	i
COc1ccc(CNC(=O)C[C@H]2C[C@H]3c4cc(N(C)C)ccc4O[C@H]3[C@H](CO)O2)cc1	i
C[C@@H]1CN([C@@H](C)CO)C(=O)c2cc(NS(=O)(=O)c3cn(C)cn3)ccc2O[C@H]1CN(C)S(=O)(=O)c1ccc(Cl)cc1	i
CN1c2ccc(Br)cc2[C@H]2[C@H](CCN2C(=O)Nc2cccc(F)c2)[C@H]1CO	i
Cc1noc(C)c1NC(=O)N(C)C[C@@H]1Oc2ccc(NC(=O)Cc3cn(C)c4ccccc34)cc2C(=O)N([C@H](C)CO)C[C@@H]1C	i
CN(C)CC(=O)Nc1ccc2c(c1)[C@@H]1C[C@@H](CC(=O)N(C)C)O[C@@H](CO)[C@@H]1O2	i
O=C(C[C@H]1CC[C@@H]2[C@H](COC[C@@H](O)CN2Cc2nccs2)O1)NCc1ccccc1Cl	i
C[C@H](NC(=O)C[C@@H]1C[C@H]2c3cc(NC(=O)Nc4ccc(C(F)(F)F)cc4)ccc3O[C@H]2[C@H](CO)O1)c1ccccc1	i
CO[C@H](CN(C)S(=O)(=O)c1cccc(Cl)c1)[C@@H](C)CN([C@H](C)CO)S(=O)(=O)c1ccc(Cl)cc1	i
CO[C@@H]1CN(C)C(=O)c2ccc(NS(=O)(=O)c3ccc(Cl)cc3)cc2OC[C@H](C)N(C)C[C@@H]1C	i
CN(C)CC#Cc1ccc([C@@H]2[C@@H](CO)N3CCCCN(C(=O)C4CCCC4)C[C@H]23)cc1	i

An excerpt from further up, as a working copy:
SMILES	FGF22 binding
O=C(C1CCCCC1)N1CC2(C1)[C@@H](c1ccccc1)[C@@H](CO)N2Cc1cncnc1	i
CN(C)CC(=O)N1[C@@H]2Cn3c(ccc(-c4ccncc4)c3=O)[C@H]1[C@@H](C(=O)NC1CCC1)[C@@H]2CO	i

(cont.)
SMILES	FGF22 binding
CCCC(=O)Nc1ccc2c(c1)OC[C@H](C)N(C(=O)c1ccncc1)C[C@H](C)[C@H](OC)CN(C)C2=O	i
C[C@@H]1CCCCO[C@H](CN(C)S(=O)(=O)c2cn(C)cn2)[C@@H](C)CN([C@@H](C)CO)C(=O)c2cc(NC(=O)Cc3ccccc3)ccc2O1	i
C[C@H](CO)N1C[C@H](C)[C@@H](CN(C)Cc2ccc3c(c2)OCO3)Oc2ncc(/C=C/c3ccccc3)cc2C1=O	i
C[C@H](CO)N1C[C@H](C)[C@H](CN(C)C(=O)Nc2ccc3c(c2)OCO3)Oc2ccc(NC(=O)CCCCCC(=O)Nc3ccccc3N)cc2CC1=O	i
O=S(=O)(c1ccccc1F)N1CCCCN2[C@H](CO)[C@H](c3ccc(-c4cncnc4)cc3)[C@@H]2C1	i
O=C(C[C@@H]1CC[C@H]2[C@@H](COC[C@@H](O)CN2Cc2ccc(Oc3ccccc3)cc2)O1)N1CCCCC1	i
CC(C)NC(=O)Nc1ccc2c(c1)CC(=O)N([C@H](C)CO)C[C@H](C)[C@H](CN(C)C)O2	i
CO[C@@H]1CN(C)C(=O)c2ccc(NS(=O)(=O)c3cccc(F)c3)cc2OC[C@H](C)N(C(=O)Cc2cccnc2)C[C@@H]1C	i
C[C@@H]1CCCCO[C@@H](CN(C)Cc2ccncc2)[C@@H](C)CN([C@H](C)CO)C(=O)c2cc(NS(=O)(=O)c3ccccc3)ccc2O1	i
CC(C)C#Cc1ccc([C@H]2[C@@H](C#N)N(C(=O)c3ccccn3)[C@@H]2CO)cc1	i
CC(C)NC(=O)N(C)C[C@@H]1Oc2ncc(C#CC3CCCC3)cc2C(=O)N([C@H](C)CO)C[C@H]1C	i
CNC(=O)C[C@H]1CC[C@@H]2[C@@H](COc3ccc(NC(=O)c4cscn4)cc3C(=O)N2C)O1	i
CN(C)C(=O)[C@@H]1N[C@@H]2c3ccc(-c4ccc(F)cc4)c(=O)n3C[C@@H]2[C@H]1CO	i
COc1ccc(C#Cc2ccc3c(c2)[C@H]2[C@H](CCN2S(=O)(=O)c2ccc(OC)cc2)[C@@H](CO)N3C)cc1	i
C[C@H](NC(=O)C[C@@H]1CC[C@@H](NC(=O)Cc2ccccn2)[C@@H](CO)O1)c1ccccc1	i
COCC(=O)N1CC(=O)N2[C@H](C1)[C@H](c1ccc(C#CC3CC3)cc1)[C@@H]2CO	i
CCCNC(=O)N[C@H]1C=C[C@H](CC(=O)NC2CCC2)O[C@H]1CO	i
C[C@@H]1CN([C@@H](C)CO)S(=O)(=O)c2ccc(-c3cccc(C(=O)N(C)C)c3)cc2O[C@@H]1CN(C)C	i
O=C(C[C@H]1C=C[C@@H](NS(=O)(=O)c2ccc(F)cc2)[C@@H](CO)O1)NCc1ccc(Cl)c(Cl)c1	i
C[C@H](CO)N1C[C@H](C)[C@@H](CN(C)Cc2ccc(Oc3ccccc3)cc2)Oc2c(NC(=O)C3CCOCC3)cccc2C1=O	i
CC(C)NC(=O)N(C)C[C@H]1Oc2cc(C#Cc3ccc(F)cc3)ccc2S(=O)(=O)N([C@@H](C)CO)C[C@@H]1C	i
CCS(=O)(=O)N1CCCCN2[C@H](C1)[C@@H](c1ccc(C#Cc3ccccn3)cc1)[C@@H]2CO	i
CNC[C@@H]1Oc2c(NS(=O)(=O)c3ccc(F)cc3)cccc2C(=O)N([C@H](C)CO)C[C@@H]1C	i
CN(C)C(=O)c1cccc(-c2ccc([C@H]3[C@@H](C#N)N(C(=O)C4CC4)[C@@H]3CO)cc2)c1	i
C[C@H](NC(=O)C[C@H]1C[C@H]2c3cc(NC(=O)c4cccnc4)ccc3O[C@H]2[C@@H](CO)O1)c1ccccc1	i
Remaining list, next part:
SMILES	FGF22 binding
Cc1ccc(S(=O)(=O)N(C)C[C@@H]2Oc3ncc(-c4ccccc4)cc3C(=O)N([C@@H](C)CO)C[C@@H]2C)cc1	i
CCC(=O)N(C)C[C@@H]1Oc2cc(C#CC(C)C)ccc2S(=O)(=O)N([C@H](C)CO)C[C@@H]1C	i
C[C@@H]1CCCCO[C@@H](CN(C)C(=O)c2ccccc2)[C@@H](C)CN([C@@H](C)CO)C(=O)c2cc(NS(=O)(=O)c3ccc(Cl)cc3)ccc2O1	i
O=C(C[C@@H]1C[C@H]2c3cc(NC(=O)C4CCOCC4)ccc3O[C@H]2[C@@H](CO)O1)NCc1ccccn1	i
CN1c2ccc(-c3cccc(F)c3)cc2[C@H]2[C@H](CCN2C(=O)c2ccccc2F)[C@@H]1CO	i
CC(=O)NCCCC[C@@H]1NC(=O)[C@H]2C[C@@H](C(=O)NCCCCCCNC(=O)CS)[C@@H](c3ccc(O)cc3)N2C1=O	i
C[C@H](CO)N1C[C@H](C)[C@H](CN(C)Cc2ccc(-c3ccccc3)cc2)Oc2ccc(NC(=O)CCC(F)(F)F)cc2CC1=O	i
C[C@H]1CN([C@@H](C)CO)C(=O)Cc2cc(N(C)C)ccc2O[C@@H]1CN(C)S(C)(=O)=O	i
Cc1noc(C)c1S(=O)(=O)Nc1ccc2c(c1)C(=O)N([C@H](C)CO)C[C@@H](C)[C@@H](CN(C)S(=O)(=O)c1ccccc1)O2	i
C[C@H](NC(=O)C[C@H]1CC[C@H]2[C@@H](COC[C@@H](O)CN2C(=O)Nc2cccc(Cl)c2)O1)c1ccccc1	i
C[C@H]1CN([C@@H](C)CO)C(=O)c2cc(NS(C)(=O)=O)ccc2O[C@@H]1CN(C)C(=O)Nc1ccc2c(c1)OCO2	i
C[C@H](CO)N1C[C@H](C)[C@H](CN(C)S(=O)(=O)c2ccccc2)Oc2ccc(N(C)C)cc2CC1=O	i
CO[C@@H]1CN(C)C(=O)c2ccc(NC(=O)C3CC3)cc2OC[C@H](C)NC[C@H]1C	i
C[C@H]1CN([C@@H](C)CO)S(=O)(=O)c2ccc(-c3ccccc3)cc2O[C@H]1CN(C)C	i
CCCNC(=O)C[C@@H]1CC[C@H]2[C@H](COc3ccc(NC(=O)c4cccc(F)c4)cc3C(=O)N2C)O1	i
Cc1ccc(S(=O)(=O)Nc2ccc3c(c2)C(=O)N([C@H](C)CO)C[C@H](C)[C@@H](CN(C)Cc2ccncc2)OCCCC[C@H](C)O3)cc1	i
OC[C@@H]1[C@H](c2ccc(C3=CCCC3)cc2)[C@H]2CN(Cc3cccnc3)CCCCN12	i
Cc1noc(C)c1S(=O)(=O)Nc1ccc2c(c1)C(=O)N([C@H](C)CO)C[C@@H](C)[C@H](CN(C)S(=O)(=O)c1cccs1)OCCCC[C@@H](C)O2	i
COc1ccc(CN(C)C[C@H]2OCCCC[C@@H](C)Oc3ccc(NC(=O)Nc4ccc(C(F)(F)F)cc4)cc3C(=O)N([C@@H](C)CO)C[C@@H]2C)cc1	i
N#C[C@@H]1[C@H](c2ccccc2-c2cccc(F)c2)[C@H](CO)N1C(=O)Cc1cccnc1	i
C[C@H](CO)N1C[C@H](C)[C@H](CN(C)Cc2ccc(Oc3ccccc3)cc2)Oc2ccc(NC(=O)Nc3ccccc3)cc2C1=O	i
Cc1ccc(S(=O)(=O)Nc2ccc3c(c2)C(=O)N([C@@H](C)CO)C[C@@H](C)[C@H](CN(C)C(=O)c2ccncc2)OCCCC[C@@H](C)O3)cc1	i
CCCC(=O)Nc1ccc2c(c1)OC[C@H](C)N(C(=O)C1CCCC1)C[C@H](C)[C@H](OC)CN(C)C2=O	i
C[C@@H]1CN([C@H](C)CO)S(=O)(=O)c2ccc(-c3cccc(C#N)c3)cc2O[C@@H]1CN(C)C	i
C[C@H]1CCCCO[C@@H](CN(C)CC2CC2)[C@@H](C)CN([C@@H](C)CO)C(=O)c2cc(NC(=O)c3ccccc3)ccc2O1	i
The list continues:
SMILES	FGF22 binding
C[C@@H]1CN([C@@H](C)CO)C(=O)Cc2cc(NC(=O)Cn3cnnn3)ccc2O[C@H]1CN(C)S(=O)(=O)c1cn(C)cn1	i
COCCOC(=O)N1C(=O)[C@@]2(c3cc(C#CCNC(N)=O)ccc31)[C@H](C(=O)N1CCN(c3ncccn3)CC1)[C@H]1C(=O)O[C@H](c3ccccc3)[C@H](c3ccccc3)N1[C@@H]2c1ccccc1OCCO	i
COc1ccc2c3c([nH]c2c1)[C@@H](CO)N(C(=O)Nc1ccc(F)cc1)CC31CCN(S(=O)(=O)c2cccc(F)c2)CC1	i
C[C@H]1CN([C@@H](C)CO)C(=O)Cc2cc(NC(=O)Nc3ccc(F)cc3)ccc2O[C@H]1CN(C)CC1CC1	i
O=C(Nc1ccccc1F)N1[C@H](CO)[C@@H]2c3ccccc3NC[C@@H]21	i
C[C@@H]1CN([C@@H](C)CO)S(=O)(=O)c2ccc(-c3ccccc3)cc2O[C@@H]1CN(C)C(=O)Nc1ccccc1F	i
C[C@@H]1CN([C@H](C)CO)C(=O)c2cc(NC(=O)CCCN(C)C)ccc2O[C@@H](C)CCCCO[C@@H]1CN(C)S(=O)(=O)c1ccc(Cl)cc1	i

Of the compounds above, eight contain a Cl atom.
SMILES	FGF22 binding
C[C@@H]1CN([C@@H](C)CO)C(=O)c2cc(NS(=O)(=O)c3cn(C)cn3)ccc2O[C@H]1CN(C)S(=O)(=O)c1ccc(Cl)cc1	i
O=C(C[C@H]1CC[C@@H]2[C@H](COC[C@@H](O)CN2Cc2nccs2)O1)NCc1ccccc1Cl	i
CO[C@H](CN(C)S(=O)(=O)c1cccc(Cl)c1)[C@@H](C)CN([C@H](C)CO)S(=O)(=O)c1ccc(Cl)cc1	i
CO[C@@H]1CN(C)C(=O)c2ccc(NS(=O)(=O)c3ccc(Cl)cc3)cc2OC[C@H](C)N(C)C[C@@H]1C	i
O=C(C[C@H]1C=C[C@@H](NS(=O)(=O)c2ccc(F)cc2)[C@@H](CO)O1)NCc1ccc(Cl)c(Cl)c1	i
C[C@@H]1CCCCO[C@@H](CN(C)C(=O)c2ccccc2)[C@@H](C)CN([C@@H](C)CO)C(=O)c2cc(NS(=O)(=O)c3ccc(Cl)cc3)ccc2O1	i
C[C@H](NC(=O)C[C@H]1CC[C@H]2[C@@H](COC[C@@H](O)CN2C(=O)Nc2cccc(Cl)c2)O1)c1ccccc1	i
C[C@@H]1CN([C@H](C)CO)C(=O)c2cc(NC(=O)CCCN(C)C)ccc2O[C@@H](C)CCCCO[C@@H]1CN(C)S(=O)(=O)c1ccc(Cl)cc1	i

Only part of the results is shown, so the mix of outcomes need not match the whole.
